D2 agonist = human D2 receptor agonism in beta-arrestin assay; P14416; activation, % (no concentration beside the values); hit rate 0.084% among 360,000; DiscoveRx PathHunter D2 beta-arrestin, luminescence, 90 min; 100% = 57 uM dopamine signal; in the data active = activation above about 40%; inconclusive = about 15% to 40%; inactive = below about 15%; note: compound concentration not given in the record; the text of the record calls up to 30% inactive
Target sequence (P14416 whole entry, looked up): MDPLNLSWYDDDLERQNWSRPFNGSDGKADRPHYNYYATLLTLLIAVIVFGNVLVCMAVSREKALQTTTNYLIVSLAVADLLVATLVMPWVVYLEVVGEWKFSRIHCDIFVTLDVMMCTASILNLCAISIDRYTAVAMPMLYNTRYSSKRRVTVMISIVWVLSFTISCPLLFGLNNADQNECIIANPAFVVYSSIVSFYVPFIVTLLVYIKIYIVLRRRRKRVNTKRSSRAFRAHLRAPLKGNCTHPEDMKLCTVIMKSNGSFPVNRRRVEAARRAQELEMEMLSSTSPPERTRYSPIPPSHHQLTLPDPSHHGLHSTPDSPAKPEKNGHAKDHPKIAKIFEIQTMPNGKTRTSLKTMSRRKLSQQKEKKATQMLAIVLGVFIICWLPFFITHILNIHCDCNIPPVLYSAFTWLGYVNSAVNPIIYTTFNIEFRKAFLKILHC
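DiscoveRx PathHunter D2 beta-arrestin cells (2,100/well) attached overnight, then compound-stimulated 90 min at 37 C in HBSS/10 mM HEPES/0.1% Tween-20 buffer; beta-galactosidase complementation read by luminescence after 1 h at ambient temperature. Dopamine 57 uM final (EC100) as control.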
gsp ag = activates gsp, the McCune-Albright syndrome mutation; gsp mutant cells, cAMP HTRF, 30 min; control for the full effect not named in the record; Potency, µM (titrated, usually from 76.9 µM), for the others: at the highest dose activation (cAMP increase), most hits filed as activators; hit rate 0.13% among 340,000; AID 624287; active = well fitted activation curve with a large enough effect; inconclusive = small, poorly fitted or top-dose-only effect, or another doubt; inactive = no such curve, though single readings can be large or run the other way; cell line not stated here;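 note: phosphodiesterase inhibitor Ro 20-1724 added with compounds to block cAMP breakdown; potency is the fitted concentration of half-maximal effect; nearly all actives have a fitted effect of over 60% in size; about a fifth of the inactives were tested at one dose only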
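Cells in DMEM/10% FBS with G418 were pretreated with compounds in DMSO plus […] (300 uM stock) for 30 min at 37C. cAMP was measured by HTRF (cAMP-d2 plus anti-cAMP antibody-K) after 30 min at room temperature.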
D2 potentiator = human D2 receptor positive allosteric modulation; P14416; DiscoveRx D2 beta-arrestin cells, luminescence, 90 min; 100% = 57 uM dopamine signal; potentiation, % (no concentration beside the values); hit rate 0.23% among 360,000; AID 624464; active = potentiation of 50% or more; inconclusive = 30% to 50%; inactive = 30% or less;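 note: compound concentration not given in the record; tested on top of an EC20 dose of dopamine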
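D2 cells co-treated with compound plus 50 nM dopamine (EC20) for 90 min at 37 deg C to detect potentiation. Beta-arrestin recruitment was read as enzyme-fragment luminescence after 1 h at ambient temperature. Full response was set by 57 uM dopamine.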
Six1-Eya2 inh = Six1/Eya2 interaction inhibition; Q15475+O00167; AlphaScreen GST-Six1/His-Eya2 binding, biochemical; active compounds read low; control for the full effect not named in the record; activity change, % (no concentration beside the values); hit rate 0.56% among 360,000; AID 651725; in the data active = activity change below about -65%; inconclusive = about -30% to -65%; inactive = above about -30%; note: % is set by controls: 0 for no effect and ±100 for the full control effect
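Homogeneous AlphaScreen proximity assay pairing GST-Six1 with His-tagged Eya2 (added as 5X mix: 250 nM and 500 nM) in 50 mM Tris pH 8.0, 300 mM NaCl, 1 mM TCEP. Glutathione donor and nickel acceptor beads; 1 h, 37 °C, dark.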
CtBP-E1A inh = CtBP/E1A binding inhibition; AlphaScreen GST-E1A/His-CtBP binding, 1536-well; active compounds read low; control for the full effect not named in the record; activity change, % (concentration not given with the values); hit rate 0.49% among 340,000; AID 651724; in the data active means activity change below about -65%; inconclusive means about -30% to -65%; inactive means above about -30%; note: % is set by controls: 0 for no effect and ±100 for the full control effect
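Homogeneous bead-based format: GST-tagged E1A captured on glutathione donor beads, His-tagged CtBP on nickel acceptor beads; compounds precede bead addition by 2 h at 37 °C.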
gsp antagonist = antagonizes gsp, the McCune-Albright syndrome mutation | gsp-mutant cells, cAMP HTRF, 30 min; control for the full effect not named in the record | Potency, µM (doses to about 76.9 µM), for the others: at the top dose activity change, negative = inhibition, actives largely listed as inhibitors | AID 624288 | hit rate 0.4% among 340,000; active = falling curve of any shape with a large fitted effect; inconclusive = falling curve, mostly with a smaller effect; inactive = flat or rising curve; cell line not stated here;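 note: intracellular cAMP measured with PDE inhibitor Ro 20-1724 present during compound exposure; potency is the fitted concentration of half-maximal effect; % is set by controls: 0 for no effect and ±100 for the full control effect; nearly all actives have a fitted effect of over 65% in size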
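HTRF cAMP measurement after 30 min RT detection following 30 min, 37C compound treatment alongside […] (added as 300 uM solution) in G418-selected cells seeded at 2000/well and grown 16–24 h.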
An asterisk follows results filed as active; [ ] = another dose, or the depositor's remark.

The first 2 records, to show the layout:
Results for COc1cccc(-c2cnc(C(O)c3cc(Cl)cc(Cl)c3)[nH]2)c1 (centres undefined) ?
D2 agonist: -4.4; D2 potentiator: -10; Six1-Eya2 inh: -6; CtBP-E1A inh: -17

How did CCCCNC(=O)C(=O)N/N=C/c1ccc(OCc2ccccc2)cc1 do in these assays?
D2 agonist: -3.9; gsp ag: -51%[inhibitor]; D2 potentiator: -6; Six1-Eya2 inh: -11; gsp antagonist: 3%

The listing, previewed entries included:
Results for COc1cccc(-c2cnc(C(O)c3cc(Cl)cc(Cl)c3)[nH]2)c1 (centres undefined) ?
D2 agonist: -4.4; D2 potentiator: -10; Six1-Eya2 inh: -6; CtBP-E1A inh: -17

How did CCCCNC(=O)C(=O)N/N=C/c1ccc(OCc2ccccc2)cc1 do in these assays?
D2 agonist: -3.9; gsp ag: -51%[inhibitor]; D2 potentiator: -6; Six1-Eya2 inh: -11; gsp antagonist: 3%

Results for CC(=O)NC(C(=O)NCC(N)=O)C(C)C (centres undefined) ?
D2 agonist: -1.2; gsp ag: -47%[inhibitor]; D2 potentiator: -5; Six1-Eya2 inh: 1; CtBP-E1A inh: -1; gsp antagonist: 10%

What do the screens show for `O=C(NCCCn1ccnc1)c1cc(-c2ccc(Cl)cc2)nc2ccccc12`?
D2 agonist: -6.4; gsp ag: -10%; D2 potentiator: -7; Six1-Eya2 inh: -10; CtBP-E1A inh: -19; gsp antagonist: -2%

What do the screens show for `O=C(OC1CCN(c2ccc([N+](=O)[O-])cc2)CC1)c1ccccc1`?
D2 agonist: 1.7; gsp ag: 22%; D2 potentiator: -7; Six1-Eya2 inh: -3; CtBP-E1A inh: -8; gsp antagonist: 0%

How did NC(=O)NOCc1ccc(Cl)cc1Cl do in these assays?
D2 agonist: -3.6; gsp ag: 15%[15.4 µM]; D2 potentiator: -2; Six1-Eya2 inh: 6; gsp antagonist: -3%

How did COc1ccc(C(=O)Nc2ccnn2C2CCN(C(=O)c3cnsn3)CC2)cc1 do in these assays?
D2 agonist: -5.1; gsp ag: -17%; D2 potentiator: -8; Six1-Eya2 inh: 1; CtBP-E1A inh: 11; gsp antagonist: 13%

How did C/C(=N\NS(=O)(=O)c1ccc(Br)cc1)c1cccs1 do in these assays?
D2 agonist: -5.6; gsp ag: -4%; D2 potentiator: 11; Six1-Eya2 inh: 3; CtBP-E1A inh: 1; gsp antagonist: -20%

How did CC(=O)N1CCc2c(sc(NC(=O)Cc3ccc(F)cc3)c2C(N)=O)C1 do in these assays?
D2 agonist: -1.1; gsp ag: -13%; D2 potentiator: 3; Six1-Eya2 inh: 11; gsp antagonist: -3%

Results for N#CC1=C(N)N2C(=C(C#N)C13CCCC3)Nc1ccccc12 ?
D2 agonist: -10; gsp ag: 6%[15.4 µM]; D2 potentiator: -6; Six1-Eya2 inh: 0; CtBP-E1A inh: 7; gsp antagonist: -2%

What do the screens show for `O=c1cc(O)nc2n1CCCS2`?
D2 agonist: 0.3; gsp ag: -11%; D2 potentiator: -14; Six1-Eya2 inh: 5; CtBP-E1A inh: 7; gsp antagonist: 5%

How did O=C1c2ccccc2S(=O)(=O)N1CC(O)COc1ccc(Br)cc1 (centres undefined) do in these assays?
D2 agonist: -0.6; gsp ag: -6%; D2 potentiator: 4; Six1-Eya2 inh: 0; CtBP-E1A inh: 5; gsp antagonist: -14%

How did O=[N+]([O-])c1ccc(NC(=S)N2CCN(S(=O)(=O)c3ccccc3)CC2)cc1 do in these assays?
D2 agonist: -2.3; gsp ag: 5%[15.4 µM]; D2 potentiator: -15; Six1-Eya2 inh: 4; CtBP-E1A inh: -1; gsp antagonist: -9%

What do the screens show for `CC1(C(=O)NS(=O)(=O)c2ccc(Cl)cc2)CCN1C(=O)CCc1ccccc1` (centres undefined)?
D2 agonist: -1.7; D2 potentiator: -1; Six1-Eya2 inh: 1; CtBP-E1A inh: 4

How did CCc1ccccc1NC(=S)N1CCCCCC1 do in these assays?
D2 agonist: -0.4; gsp ag: 2%; D2 potentiator: -12; Six1-Eya2 inh: 2; CtBP-E1A inh: 4; gsp antagonist: 6%

How did O=C(Nc1ccc(OC(F)(F)C(F)F)c(NC(=O)c2cccc(F)c2)c1)c1cccc(F)c1 do in these assays?
D2 agonist: -0.1; gsp ag: -3%; D2 potentiator: -19; Six1-Eya2 inh: 4; CtBP-E1A inh: 3; gsp antagonist: -21%

What do the screens show for `COc1cc(NC(=O)C2CCN(S(=O)(=O)c3cccc4nonc34)CC2)cc(OC)c1`?
D2 agonist: 2.5; gsp ag: -39%[inhibitor]; D2 potentiator: -4; Six1-Eya2 inh: inconclusive; CtBP-E1A inh: -21; gsp antagonist: -14%

How did CC(C)(C)C(=O)NC(=S)N1CCCC1 do in these assays?
D2 agonist: 0.3; gsp ag: inconclusive; D2 potentiator: 4; Six1-Eya2 inh: 2; CtBP-E1A inh: 3; gsp antagonist: 14%

Results for Cc1nn(CC(=O)Nc2ccc3c(c2)OCO3)c(C)c1[N+](=O)[O-] ?
D2 agonist: -3.3; gsp ag: inconclusive; D2 potentiator: -13; Six1-Eya2 inh: 2; CtBP-E1A inh: -11; gsp antagonist: 6%

Results for Cc1ccc(/C=C/C(=O)NCCc2cccc(Cl)c2)o1 ?
D2 agonist: -7.7; gsp ag: 11%[15.4 µM]; D2 potentiator: -23; Six1-Eya2 inh: 1; CtBP-E1A inh: -2; gsp antagonist: 0%

What do the screens show for `Cc1ccc([N+](=O)[O-])cc1S(=O)(=O)Nc1ccc(C(=O)N2CCN(C(=O)c3ccco3)CC2)cc1`?
D2 agonist: 2.0; gsp ag: -4%; D2 potentiator: 2; Six1-Eya2 inh: -20; CtBP-E1A inh: -14; gsp antagonist: inconclusive

How did O=C(NN=Cc1ccc2c(c1)OCO2)c1ccncc1 do in these assays?
D2 agonist: -0.1; gsp ag: 3%[15.4 µM]; D2 potentiator: -23; Six1-Eya2 inh: 2; CtBP-E1A inh: 5; gsp antagonist: 1%

Results for NS(=O)(=O)c1ccc(NC(=O)COC(=O)C2CCCCC2)cc1 ?
D2 agonist: -0.8; gsp ag: 3%[15.4 µM]; D2 potentiator: -1; Six1-Eya2 inh: -1; CtBP-E1A inh: -15; gsp antagonist: 5%

What do the screens show for `O=C(CCN1C(=O)/C(=C/c2ccccc2F)SC1=S)NCCCN1CCOCC1`?
D2 agonist: -15; gsp ag: -7%[15.4 µM]; D2 potentiator: -2; Six1-Eya2 inh: -4; CtBP-E1A inh: 12; gsp antagonist: 9%

Results for CCOC(=O)c1[nH]c2c(c1-c1ccc(OC)cc1)C(=O)CC(c1ccc(OC)c(OC)c1)C2 (centres undefined) ?
D2 agonist: 7.8; gsp ag: 6%; D2 potentiator: 1; Six1-Eya2 inh: -3; CtBP-E1A inh: 8; gsp antagonist: -12%

Results for O=c1[nH]c(CSc2nnc3ccccn23)nc2ccccc12 ?
D2 agonist: -2.9; gsp ag: -7%; D2 potentiator: -31; Six1-Eya2 inh: -2; CtBP-E1A inh: -1; gsp antagonist: 7%

Results for Cn1c(SCc2ccccc2)nnc1-c1ccc(O)cc1 ?
D2 agonist: inconclusive; gsp ag: 2%[15.4 µM]; D2 potentiator: -3; Six1-Eya2 inh: -1; CtBP-E1A inh: 3; gsp antagonist: 4%

What do the screens show for `CCO[C@@H]1OC(C(=O)N2CCN(C)CC2)=C[C@H](C(C)(C)C)[C@H]1CCCO`?
D2 agonist: 0.6; gsp ag: 6%; D2 potentiator: -16; Six1-Eya2 inh: 8; CtBP-E1A inh: -15; gsp antagonist: 12%

How did COc1ccc(C2C(C(=O)N3CCCCC3)c3ccccc3C(=O)N2C)cc1 (centres undefined) do in these assays?
D2 agonist: -1.4; gsp ag: -4%; D2 potentiator: 0; Six1-Eya2 inh: 6; CtBP-E1A inh: -5; gsp antagonist: -5%

How did CC(C)c1ccc(CNC(=O)CCc2ccccc2)cc1 do in these assays?
D2 agonist: 0.0; gsp ag: -58%[inhibitor]; D2 potentiator: 15; Six1-Eya2 inh: 1; gsp antagonist: 5%

How did Cc1nnsc1SCCNC(=O)Nc1ccc(Cl)cc1 do in these assays?
D2 agonist: -3.2; gsp ag: -3%; D2 potentiator: -17; Six1-Eya2 inh: 2; gsp antagonist: -10%

What do the screens show for `CCOC(=O)[C@@H]1[C@H]2COc3cc(OC)ccc3[C@H]2N2C(=O)N(c3cccc(F)c3)C(=O)[C@@]12C`?
D2 agonist: 3.9; gsp ag: -12%; D2 potentiator: 2; Six1-Eya2 inh: -6; CtBP-E1A inh: -2; gsp antagonist: -5%

How did O=c1c2sc3ccccc3c2[nH]c(=S)n1CCN1CCOCC1 do in these assays?
D2 agonist: -1.9; gsp ag: -16%[15.4 µM]; D2 potentiator: -2; Six1-Eya2 inh: 2; CtBP-E1A inh: 5; gsp antagonist: -14%

What do the screens show for `CCN(CC)C(=O)CSc1nc(-c2ccc(C)cc2)nc2c1COC(C)(C)C2`?
D2 agonist: -2.0; gsp ag: -11%; D2 potentiator: -18; Six1-Eya2 inh: -1; CtBP-E1A inh: 4; gsp antagonist: 15%

Results for CN(CCN1CCOCC1)C(=O)c1cc(COc2ccc(F)c(F)c2)on1 ?
D2 agonist: -1.7; gsp ag: 59%[15.4 µM]; D2 potentiator: 8; Six1-Eya2 inh: 13; CtBP-E1A inh: -1; gsp antagonist: 3%

Results for Cc1ccc(N=Cc2ccc(O)cc2O)cc1F ?
D2 agonist: -0.6; gsp ag: -38%[inhibitor]; D2 potentiator: 7; Six1-Eya2 inh: -6; CtBP-E1A inh: 0; gsp antagonist: 11%

How did CCC(C)(C)NC(=O)C(c1cccn1C)N(C(=O)Cn1nnc2ccccc21)c1ccc(NC(C)=O)cc1 (centres undefined) do in these assays?
D2 agonist: 0.0; gsp ag: -22%; D2 potentiator: -5; Six1-Eya2 inh: -3; CtBP-E1A inh: 6; gsp antagonist: -4%

Results for N/C(=N\c1nc2c(c(=O)[nH]1)CCC2)Nc1cccc(Cl)c1 ?
D2 agonist: 0.8; gsp ag: inconclusive; D2 potentiator: 5; Six1-Eya2 inh: -17; CtBP-E1A inh: 2; gsp antagonist: 16%

Results for CC(=O)NCC1(c2ccccc2)CCN(CCCC(=O)c2ccc(F)cc2)CC1 ?
D2 agonist: -4.3; gsp ag: -15%; D2 potentiator: -18; Six1-Eya2 inh: -1; CtBP-E1A inh: 0

What do the screens show for `O=S(=O)(NCCO)c1cccc2cccnc12`?
D2 agonist: -4.0; gsp ag: -11%; D2 potentiator: -8; Six1-Eya2 inh: 4; CtBP-E1A inh: -6; gsp antagonist: 6%

Results for CC(C)[C@H](NC(=O)Nc1cccc(Br)c1)C(=O)O ?
D2 agonist: -6.9; gsp ag: -10%; D2 potentiator: -3; Six1-Eya2 inh: -9; gsp antagonist: 8%

What do the screens show for `C=CCn1c(SCC(=O)Nc2cc(C)on2)nc2ccccc21`?
D2 agonist: -0.1; gsp ag: -31%[inhibitor]; D2 potentiator: -6; Six1-Eya2 inh: -3; CtBP-E1A inh: 1

Results for COc1cc(S(=O)(=O)NCc2ccncc2)c(OC)cc1Br ?
D2 agonist: 1.0; gsp ag: -29%; D2 potentiator: 15; Six1-Eya2 inh: 3; CtBP-E1A inh: 1; gsp antagonist: 2%
